Source: PubChem BioAssay (ICCB-Longwood Screening Facility, Harvard Medical School)
GIV-Gai inh = inhibitors of GIV GBA-motif binding to rat Galpha-i3. AID 1224905. actives 0.42% (n = 210,000). percent of control (FP), % (concentration not given with the values). P08753. Galpha-i3/FITC-GIV peptide fluorescence polarization, 90 min; active compounds read low; scaled: aluminum fluoride 0%, vehicle 100%;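 active means replicate mean at 85% of control or lower, very high polarization wells dropped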;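 further: wells of about 15 µL received 100 nL stock; the first replicate is given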
Target sequence (P08753 whole entry, looked up): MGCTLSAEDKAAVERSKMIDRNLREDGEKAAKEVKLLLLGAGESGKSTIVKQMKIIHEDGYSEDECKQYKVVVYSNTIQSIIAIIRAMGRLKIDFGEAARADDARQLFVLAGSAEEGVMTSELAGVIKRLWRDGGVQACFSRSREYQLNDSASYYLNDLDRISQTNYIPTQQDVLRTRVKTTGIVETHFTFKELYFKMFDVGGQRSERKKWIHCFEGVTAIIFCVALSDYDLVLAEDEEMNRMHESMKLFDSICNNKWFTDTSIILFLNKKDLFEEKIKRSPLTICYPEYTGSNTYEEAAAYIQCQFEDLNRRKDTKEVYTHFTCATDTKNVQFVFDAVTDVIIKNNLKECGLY
Sa growth inh = blocks Staphylococcus aureus growth. AID 720641. actives 0.53% (n = 170,000). relative growth, % (test concentration not listed). S. aureus RN4220 growth, OD600, 20 h, 42 °C; active compounds read low;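 active means growth at 42 °C up to 50% and 20 or more points under that at 30 °C, or under 10% at both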;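 further: 300 nL library stock went into each well; scaled to the means of positive and negative controls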
HCMV NEC inh = cytomegalovirus nuclear egress complex inhibition; HTRF UL50-UL53 interaction, normalized percent inhibition; inhibition, % (test concentration not listed); actives 0.15% (n = 190,000); AID 1918969;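 active means both replicates at 50% or more, plus weaker picks with an unusually low signal ratio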;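 further: stock transfer was 100 nL into about 20 µL; 0% = negative control wells and 100% = wells with untagged competitor protein; inactives centre near -12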
Sa growth inh second temp = recorded beside Sa growth inh, whose call it bears; relative growth, %; measured here: growth at 30 °C;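 optical density after 20 h as mean of two plates; 100% = untreated growth and lower means inhibition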
Active calls of the source: *; x = no result given; & = joins results of further samples.

SMILES | GIV-Gai inh | Sa growth inh | Sa growth inh second temp | HCMV NEC inh
COCCN1C(=O)c2[nH]nc(-c3c(C)cc(C)cc3O)c2C1c1cccc(O)c1 (configuration not stated) | 98 | 76 | 95 | 7
N#CC1=C(N)SC(N)=C(C#N)C1c1ccncc1 | x | 75 | 91 | -60
Cn1ccnc1SCc1cn2ccccc2n1 | x | 101 | 88 | -21
COc1ccccc1Oc1cccc(C)c1 | 101 | 118 | 97 | -4
COc1ccc(OCCSc2nc(N)cc(N)n2)cc1 | x | 75 | 92 | -21
CCOc1ccc(CCNC(c2cccc(Cl)c2)c2nnc(-c3ccccc3)o2)cc1OCC (configuration not stated) | 103 | 111 | 94 | 0
CCOC(=O)C(Cc1ccccc1)NC(=O)CCc1c(C)nc2nc(C)nn2c1C (configuration not stated) | 96 | 109 | 92 | -26
COc1ccc(-n2cc(C#N)c(N)n2)cc1 | 101 | 98 | 80 | -10
Cc1ccc(Cl)cc1N1CCN(CCCNc2nn3nnnc3c3ccccc23)CC1 | 105 | 106 | 90 | -15
Nc1c(C(=O)Nc2ccc(Br)cc2)sc2nc3c(cc12)CCCCC3 | 100 | x | x | -21
COc1ccc(-c2nc(C(N)=O)c3c(n2)n(-c2ccccc2OC)c(=O)n3C)c(OC)c1 | 108 | 88 | 99 | x
CCOC(=O)Nc1ccc2c(CNCCCN3CCOCC3)cc(=O)oc2c1 | x | 92 | 88 | -33
CCN1C(=O)CCC(C(=O)O)C1c1ccc(OC)cc1 (configuration not stated) | 103 | 81 | 89 | -27
CCC(Cn1nnc2ccccc2c1=O)NC(=O)Nc1cc(C)cc(C)c1 (configuration not stated) | 99 | 98 | 91 | -3
Cc1cc(C)nc(Nc2ncc(O)n2-c2ccc(C)c(C)c2)n1 | 103 | 96 | 97 | -11

One compound at a time, from the list above. Screens in order: GIV-Gai inh, Sa growth inh, Sa growth inh second temp, HCMV NEC inh
Results for CCOC(=O)Nc1ccc2c(CNCCCN3CCOCC3)cc(=O)oc2c1 = x, 92, 88, -33
Results for CCN1C(=O)CCC(C(=O)O)C1c1ccc(OC)cc1 (configuration not stated) = 103, 81, 89, -27

More compounds.
SMILES | GIV-Gai inh | Sa growth inh | Sa growth inh second temp | HCMV NEC inh
O=C(OCC(=O)N1CCC(c2ccccc2)=N1)c1cc(=O)[nH]c2ccccc12 | x | 94 | 88 | -21
COc1ccc(F)cc1S(=O)(=O)Nc1cccc(-c2ccc(N3CCC(C)CC3)nn2)c1 | 104 | 115 | 93 | x
O=C(Nc1cccnc1)C(Cc1ccccc1)n1cccc1 (configuration not stated) | 102 | 104 | 73 | -4
CCn1c(SC(C)C)nnc1-c1c[nH]c2ccccc12 | 102 | 95 | 82 | -14
C=CCN(C(=O)c1cc(OC)cc(OC)c1)c1nnc(-c2ccncc2)s1 | 106 | 82 | 84 | -3
COc1ccc(/C=C2\Sc3ccc(C(=O)N4CCOCC4)cc3N(C)C2=O)cc1OC | 108 | 109 | 95 | x
O=S(=O)(NCCS(=O)(=O)N1CCN(c2ccccc2)CC1)c1ccc(Cl)cc1 | 98 | 97 | 89 | x
CCCN1CCN(CCCNC(=O)c2ccc3c(c2)sc2nc(-c4ccccc4)cn23)CC1 | 112 | 98 | 54 | 8
CCn1nc(C(=O)OCC(=O)Nc2ccccc2)c2ccccc2c1=O | x | 95 | 97 | -10
Cc1ccccc1Nc1nc(N)nc(COC(=O)c2ccccc2)n1 | x | 99 | 86 | -12
CC1SC2(C(=O)Nc3ccccc32)N(c2ccc(Br)cc2)C1=O (configuration not stated) | 99 | x | x | -23
Cc1ccc(-c2nnc(Nc3ccc(S(N)(=O)=O)cc3)c3ccccc23)cc1S(=O)(=O)N1CCCCC1 | 105 | 90 | 95 | 0
Cc1cc(N2CCOCC2)nc(=S)[nH]1 | 99 | 102 | 81 | -1
Cc1c2cnn(CC(=O)N3CCC(Cc4ccccc4)CC3)c(=O)c2c(C)n1Cc1ccccc1 | 103 | x | x | -1
COC(=O)c1cc(S(=O)(=O)N2CCCC2C(=O)N2CCN(c3ccccn3)CC2)cn1C (configuration not stated) | 108 | x | x | -7
Cc1ccc(Cn2c(=O)c3ccc(C(=O)NCC(C)C)cc3n3c(=O)n(CC(=O)NC(C)(C)C)nc23)cc1 | 107 | x | x | -37
COc1ccc(CCNC(=O)C2CCN(Cc3nc(-c4ccccc4F)oc3C)CC2)cc1OC | 102 | 105 | 90 | x
O=C(COc1ccccc1)NCCn1ccc2ccccc21 | 104 | 101 | 86 | -14
CC1(C)CC(=O)c2sc(NC(=O)c3ccc(S(=O)(=O)N4CCOCC4)cc3)nc2C1 | 100 | x | x | -33
O=C(NCCCN1CCCCCC1)c1cc2c(s1)-c1ccccc1OC2 | 104 | 98 | 98 | -36
CC1(C)CC(C(CC#N)c2ccc(F)cc2)CCO1 (configuration not stated) | 98 | 98 | 76 | -8
O=C(CCn1[nH]c(=O)ccc1=O)Nc1nc(SCc2ccc(Cl)cc2)n[nH]1 | x | 92 | 96 | 6
COc1ccc(C(CN)N2CCOCC2)cc1 (configuration not stated) | 101 | 83 | 64 | -4
CN(C)S(=O)(=O)c1cccc(C(=O)OCC(=O)N2N=C3/C(=C/c4ccco4)CCCC3C2c2ccco2)c1 (configuration not stated) | x | 108 | 93 | 4
CCN1CCN(C(=O)Cn2ncc3c4ccccc4n(Cc4c(C)cc(C)cc4C)c3c2=O)CC1 | 101 | 114 | 76 | 6
CCN1C(=O)C2(C(C#N)=C(N)SC(N)=C2C#N)c2ccccc21 | 119 | 11 | 0 | -9
COc1ccc(-n2c(SCC(N)=O)nc3c(c2=O)C2(CCCC2)Cc2ccccc2-3)cc1 | 103 | x | x | -22
CC(C)(C)C1CCNCC1 | 100 | 95 | 86 | -1
Cc1cc(OCC(=O)Nc2cccnc2)c(C)cc1Br | 101 | 103 | 99 | 3
Cc1ccc(CN2C(=O)C(O)(c3c(C)[nH]c4ccccc34)c3ccccc32)cc1 (configuration not stated) | 117 | 99 | 97 | 1
O=C(Nc1ccccc1)Nc1ccc(C2SCCS2)cc1 | 107 | 84 | 85 | -40
CCc1ccc(N=C2NC(=O)CC(C(=O)Nc3ccc(OC)cc3)S2)cc1 (configuration not stated) | 106 | 109 | 106 | -8
COc1ccc(C2(CNC(=O)C(=O)Nc3cccc(C(F)(F)F)c3)CCCC2)cc1OC | 105 | 88 | 87 | 5
COC(=O)C1CN(CC(=O)Nc2cccnc2Cl)CCS1 (configuration not stated) | x | 74 | 88 | -22
O=c1[nH]c(SCc2ccc(F)cc2Cl)nc2c(-c3ccccc3)c[nH]c12 | 105 | x | x | -19
Cc1ccc(S(=O)(=O)NC2c3cccc4cccc(c34)C2Sc2ncccn2)cc1 (configuration not stated) | 110 | 93 | 88 | -19
CCN1c2cc(NC(C)=O)ccc2C(C)CC1(C)C (configuration not stated) | 122 | 95 | 78 | -16
COc1cc(Br)cc2c1OC1(C)CC2NC(=O)N1 (configuration not stated) | 102 | 88 | 79 | -10
Cc1cc(C)c(NC(=S)N(CCN2CCCCC2)Cc2ccco2)c(C)c1 | 103 | 103 | 83 | -14
Cc1cc(NC(=O)n2ncc3c(C)cccc32)ccc1Br | 104 | 104 | 86 | -5
S=c1nc(C2CCCC2)nc2sccn12 | x | 121 | 104 | 1
O=c1ccc(-c2ccc(S(=O)(=O)NCC3CCN(CCc4cccs4)CC3)s2)n[nH]1 | 107 | 92 | 91 | -90
CS(=O)(=O)Nc1ccccc1C(=O)OCc1cc(=O)n2nc(C3CCCCC3)sc2n1 | 102 | 103 | 91 | x
CCOc1ccccc1NC(=O)NC(CC)c1c(-n2cccc2)sc2c1CCN(C)C2 (configuration not stated) | 122 | 104 | 84 | x
Cc1nn(-c2ccc(N3CCOCC3)nn2)c(C)c1CCC(=O)NCc1ccccc1 | 107 | 87 | 92 | x
O=C(O)c1cccc2cccc(C(=O)O)c12 | 98 | 94 | 93 | -30
CC(C)CCn1c(=O)c2sccc2n2c(=O)[nH]nc12 | 106 | x | x | 8
CN(C)C(=S)c1ccc(N(C)C)cc1 | 104 | 103 | 105 | -7
COc1cc(OC)cc(-c2nc3ccccc3c(=O)n2NC(=O)c2cc(OC)ccc2Br)c1 | 100 | x | x | -8
O=C(O)CCSc1nc2ccccc2o1 | 106 | 114 | 82 | -15
CC(C)OCCCNC(=O)CCCn1c(=O)[nH]c2ccsc2c1=O | 101 | 91 | 89 | 11
CCN1CCN(C(=S)NCC2CCCO2)CC1 (configuration not stated) | 106 | 115 | 91 | 3
CCOC(=O)c1ccccc1NC(=O)c1cc2ccccc2c(=O)s1 | 110 | x | x | -8
Cn1cc(C(=O)NCc2ccccc2Cl)c2[nH]c(=O)n(-c3ccccc3)c(=O)c21 | 103 | x | x | -23
Cc1ccc(/C=N/NC(=S)NC2CCCCC2)o1 | x | 87 | 75 | -46
CCC(=O)N1N=C(c2c(O)n(C)c(=S)n(C)c2=O)CC1c1ccc(N(C)C)cc1 (configuration not stated) | 106 | x | x | 12
CCOc1ccc(C(=O)N2CCN(CCc3ccncc3)CC2)cc1 | 103 | x | x | -9
CC(C)(C)C(=O)c1sc2nc(-c3cccs3)cc(C(F)(F)F)c2c1N | x | 100 | 98 | 0
Cc1ccc(OCc2ccccc2C(=O)O)cc1C | 101 | 117 | 104 | 8
CCCC(=O)Nc1ccc(-c2cn3ccccc3n2)cc1 | 97 | 79 | 58 | x
(next part)
SMILES | GIV-Gai inh | Sa growth inh | Sa growth inh second temp | HCMV NEC inh
C=CCn1c(COc2ccccc2)n[nH]c1=S | x | 81 | 62 | -10
COc1cc(S(=O)(=O)Nc2ccccn2)ccc1Cl | 101 | 93 | 104 | 9
CC1CCCN(C(=O)C(C)Nc2cc(Cl)ccc2N2CCOCC2)C1 (configuration not stated) | x | 90 | 79 | -11
O=C(NCCOCCn1c(=O)oc2ccccc21)Nc1ccc(F)cc1 | 103 | 99 | 84 | -7
N#CC1=C2N3CCCCCC3=NN2C(=O)NC1(c1ccccc1)C(F)(F)F (configuration not stated) | x | 106 | 93 | -1
N#Cc1c(-n2ccnc2)cccc1-n1ccnc1 | 101 | x | x | -8
COc1ccccc1NC(=O)c1sc(-c2ccc(Cl)cc2)cc1N | 108 | 97 | 107 | 24
CCCCN(C)S(=O)(=O)c1cc(-c2nnc3c4ccccc4c(C)nn23)ccc1C | 99 | 98 | 81 | x
CCOc1ccc(CNC(=O)C2CCCN(S(=O)(=O)N(C)c3ccc(F)cc3)C2)cc1OC (configuration not stated) | 108&103 | 99 | 87 | 5&15
O=C(Cc1ccc([N+](=O)[O-])cc1)Nn1c(-c2ccc(Br)cc2)nc2ccccc2c1=O | 94 | x | x | -14
Cc1ccccc1CNC(=O)Cn1ncn2nc(-c3cccs3)cc2c1=O | 102 | 99 | 83 | 4
COc1ccc(-c2nc3c4cnn(-c5ccccc5F)c4ncn3n2)cc1 | 100 | 100 | 80 | -7
CC(NC(=O)Cn1nc(-c2ccc(Cl)cc2)c2ccccc2c1=O)c1ccccc1 (configuration not stated) | 106 | 101 | 78 | 4
O=C(Nc1cccnc1)c1ccc(OCC2CCCO2)cc1 (configuration not stated) | x | 95 | 88 | -14
COc1ccccc1/C=C/C(=O)NC1CCCC1 | 106 | 108 | 94 | -13
O=C(c1cccs1)C(O)c1cccs1 (configuration not stated) | 103 | 91 | 51 | -53
CCCCNCc1cc(=O)n2[nH]c(-c3ccccc3)nc2n1 | 98 | x | x | -20
Oc1cccc(C(Nc2ccccn2)c2ccc3cccnc3c2O)c1Cl (configuration not stated) | 110 | 79 | 80 | -38
Cc1nc2ccc(NC(=O)C3CCCC3)cc2s1 | x | 90 | 88 | -4
COCCNC(=O)c1c(NC(=O)c2snnc2C)sc2c1CCCC2 | 96 | x | x | -35
CCc1cc(C(Nc2nc(C)cc(C)n2)c2ccccc2OC)c(NC(=O)c2ccccc2)s1 (configuration not stated) | 110 | x | x | -12
O=C(COC(=O)c1cccc(S(=O)(=O)N2CCCC2)c1)c1ccccc1 | x | 80 | 86 | -20
CCc1nc(C)cn1S(=O)(=O)c1cc(OC)ccc1OC | 105 | 116 | 82 | x

Structures from the list above that have an NH in an aromatic ring, in the order listed:
SMILES | GIV-Gai inh | Sa growth inh | Sa growth inh second temp | HCMV NEC inh
COCCN1C(=O)c2[nH]nc(-c3c(C)cc(C)cc3O)c2C1c1cccc(O)c1 (configuration not stated) | 98 | 76 | 95 | 7
O=C(OCC(=O)N1CCC(c2ccccc2)=N1)c1cc(=O)[nH]c2ccccc12 | x | 94 | 88 | -21
CCn1c(SC(C)C)nnc1-c1c[nH]c2ccccc12 | 102 | 95 | 82 | -14
Cc1cc(N2CCOCC2)nc(=S)[nH]1 | 99 | 102 | 81 | -1
O=C(CCn1[nH]c(=O)ccc1=O)Nc1nc(SCc2ccc(Cl)cc2)n[nH]1 | x | 92 | 96 | 6
Cc1ccc(CN2C(=O)C(O)(c3c(C)[nH]c4ccccc34)c3ccccc32)cc1 (configuration not stated) | 117 | 99 | 97 | 1
O=c1[nH]c(SCc2ccc(F)cc2Cl)nc2c(-c3ccccc3)c[nH]c12 | 105 | x | x | -19
O=c1ccc(-c2ccc(S(=O)(=O)NCC3CCN(CCc4cccs4)CC3)s2)n[nH]1 | 107 | 92 | 91 | -90
CC(C)CCn1c(=O)c2sccc2n2c(=O)[nH]nc12 | 106 | x | x | 8
CC(C)OCCCNC(=O)CCCn1c(=O)[nH]c2ccsc2c1=O | 101 | 91 | 89 | 11
Cn1cc(C(=O)NCc2ccccc2Cl)c2[nH]c(=O)n(-c3ccccc3)c(=O)c21 | 103 | x | x | -23
C=CCn1c(COc2ccccc2)n[nH]c1=S | x | 81 | 62 | -10
CCCCNCc1cc(=O)n2[nH]c(-c3ccccc3)nc2n1 | 98 | x | x | -20
